MT1-MMP promoter = MT1-MMP gene expression reporter suppression – cell-based, luciferase reporter, luminescence (AID 618) | calls from a first round at 10 µM; hits with a dose series show EC50 in µM | MT1-MMP promoter luciferase reporter cells, luminescence | actives 0.62% (n = 87,000);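 active = over half of the reporter light lost at 10 µM or EC50 under 50 µM; inactive = the rest and hits that failed the dose series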;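 note: actives suppress MT1-MMP promoter-driven transcription so potencies describe inhibitors; HT1080 fibrosarcoma cells; overnight exposure; toxic or luciferase-blocking compounds were not removed from the actives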
* = called active by the depositor; i = inactive. These rows are one share of the data; count on the stated rates, not on these rows.

structure	MT1-MMP promoter
Clc1ccc(-c2n[nH]c3c2CCC3)c(Cl)c1	i
COC(=O)[C@@H]1C[C@@H]2CC[C@@H](O)C[C@@H]2N1Cc1ccc(-c2ccccc2)cc1	i
CCN1CCN(C(=S)c2ccc(OCC(=O)N3CCOCC3)cc2)CC1	i
O=C(O)C1CCCCC1C(=O)NCCC(c1ccccc1)c1ccccc1 (configuration not stated)	i
CC(C)(C)[Si](C)(C)c1c2c(nc3ccc(OCc4ccccc4)cc13)-c1cccc(=O)n1C2	i
CCc1ccc(CNC(=O)C2CCC(=O)N2C2CCCCC2)cc1 (configuration not stated)	i
CCOC(=O)N1CCN(C(=O)CN(Cc2ccc(Cl)cc2)S(=O)(=O)c2ccccc2)CC1	i
O=C(CSc1nc2c(sc3ccccc32)c(=O)n1CCCN1CCCC1)NCC1CCCO1 (configuration not stated)	i
CCn1c(SCC(=O)N2CCCCC2C)nc2ccsc2c1=O (configuration not stated)	i
COC(=O)[C@@]1(Cc2ccccc2)[C@H]2c3cc(C(=O)N(C)C)n(CCO)c3C[C@H]2CN1C(=O)c1ccccc1	i
CCC1=NN2C(=N)/C(=C\c3ccc(SCc4ccco4)o3)C(=O)N=C2S1	i
Cn1c(Cn2c(C(F)(F)F)nc3ccccc32)nc2ccccc21	i
Cc1cc(/C=C(/C#N)c2nc3ccccc3[nH]2)c(C)n1-c1cccc([N+](=O)[O-])c1	i
Cc1ccc(C)c(N2CCN(C(=O)Cc3cn(C)c4ccccc34)CC2)c1	i
CCCCc1oc2c(c(=O)c1C)C(=O)CC(c1ccccc1)C2 (configuration not stated)	i
CCOC(=O)C(Sc1cc(C)nc(N)n1)C(C)=O (configuration not stated)	i
Cc1ccc(S(=O)(=O)Cc2ccc(C(=O)NCc3cccs3)o2)cc1	i
CCC(C)Cn1c(C(C)O)nc2ccccc21 (configuration not stated)	i
Nc1nc(SCc2nnc(SCC(=O)O)n2-c2ccccc2)nc2sc3c(c12)CCCC3	i
COc1cccc(C(=O)Nc2ccc3c(c2)C(=O)N(CCC(=O)O)C3=O)c1	i
COC(=O)[C@@H]1C[C@@]2(O)[C@@H](O)[C@@H](O)[C@@H](O)C[C@H]2N1C/C=C/c1ccccc1	i
CNC(=O)C1(C)C=CC2(CCCCC2)N1C(=O)OC (configuration not stated)	i
O=C(Nc1ccccc1)Nc1cc(Cl)cc(Cl)c1	i
CC12CCC(C(=O)N(Cc3ccccc3)Cc3ccccc3)(OC1=O)C2(C)C (configuration not stated)	i
O=C(CSc1nc(Nc2ccccc2)nc(N2CCOCC2)n1)Nc1ccc([N+](=O)[O-])cc1	i
CCCCNC(=O)c1ccc2c(=O)n(CCCOCC)c(=S)[nH]c2c1	i
CN(C)c1ccc(N/C=C/C(=O)c2ccco2)cc1	4.4µM*
CCOC(=O)C1CCN(C(=O)CCS(=O)(=O)c2ccc3c(c2)CCN3C(C)=O)CC1	i
Cn1c(-c2ccc(C=O)s2)nc2c3ccccc3c3ccccc3c21	i
CN(CCOC(=O)c1ccco1)Cc1ccccc1	i
N#Cc1ccc(C23CC4(C2)[C@H](CN(Cc2cccnc2)[C@@H]4c2ccccc2)C3c2ccc(C(F)(F)F)cc2)cc1 (some centres not stated)	i
Cc1ccc(C2=NN(C)c3nc4ccccc4n3C2)cc1	i
Cc1cccc(Cc2c(C)nc3c(C(=O)N4CCN(Cc5ccc6c(c5)OCO6)CC4)cnn3c2C)c1	i
CCC(=O)Nc1nnc(CSCc2ccc(F)cc2)s1	i
O=C(Nc1ccc2ccccc2c1)[C@H]1C[C@@H]1[C@H](NP(=O)(c1ccccc1)c1ccccc1)c1ccccc1	i
O=C(NCc1nc2ccccc2[nH]1)[C@H]1C[C@@H]1[C@H](NP(=O)(c1ccccc1)c1ccccc1)c1ccccc1	i
CNC(=O)[C@H](C)/C=C/C(NC(=O)OCc1ccccc1)c1ccc(C(=O)OC)cc1 (some centres not stated)	i
CCCCCCCCS(=O)c1sc2nc(C)cc(C)c2c1N (configuration not stated)	i
CCOC(=O)C1=C(C)N(CCCC(=O)NCCn2c(-c3ccccc3)cc(C(=O)OC)c2C)C(=O)NC1c1ccc([N+](=O)[O-])cc1 (configuration not stated)	i
Cc1ccnc(NC(=O)c2ccc(N3C(=O)CCC3=O)cc2)c1	i
Cc1ccc(CN2C(=O)CCC2C(=O)NCc2cccnc2)cc1 (configuration not stated)	i
N#CC1=C(N)Oc2c(ccc3ccccc23)C1c1cccs1 (configuration not stated)	i
COc1ccc(-c2cc(C#N)nc(N3CCN(c4ccccc4)CC3)n2)cc1	i
C=CCn1c(CCNC(=O)c2ccccc2F)nnc1SCc1nc2ccccc2c(=O)[nH]1	i
Cc1sc2ncnc(SCC(=O)N3CCC(c4noc5ccc(F)cc45)CC3)c2c1C	i
COC(=O)c1cc(C(=O)OC)n(Cc2ccc(Cl)cc2Cl)n1	i
CCOc1ccc(NC(=O)CC2C(=O)N(c3ccccc3)C(=O)N2Cc2ccccn2)cc1 (configuration not stated)	i
COC(=O)c1cccc(NS(=O)(=O)c2ccc(NC(C)=O)cc2)c1C	i
COC(=O)C1=C(O)CSC1=Nc1ccccc1	i
Cc1cc(C)c(NC(=S)N2CCC(N(C)CC3CCCO3)CC2)c(C)c1 (configuration not stated)	i

Among those listed so far, these contain a cyano group:
structure	MT1-MMP promoter
Cc1cc(/C=C(/C#N)c2nc3ccccc3[nH]2)c(C)n1-c1cccc([N+](=O)[O-])c1	i
N#Cc1ccc(C23CC4(C2)[C@H](CN(Cc2cccnc2)[C@@H]4c2ccccc2)C3c2ccc(C(F)(F)F)cc2)cc1 (some centres not stated)	i
N#CC1=C(N)Oc2c(ccc3ccccc23)C1c1cccs1 (configuration not stated)	i
COc1ccc(-c2cc(C#N)nc(N3CCN(c4ccccc4)CC3)n2)cc1	i

Continued:
compound	MT1-MMP promoter
Cc1ccc(-c2nc3ccccc3s2)cc1S(=O)(=O)N1CCCC1	i
CC(=O)Nc1ccc(C(=O)N(C)c2ccccc2)cc1	i
COC(=O)[C@@]1(Cc2ccc(F)cc2)[C@H]2c3cc(C(=O)N(C)C)n(CCN4CCOCC4)c3C[C@H]2CN1C(=O)c1ccccc1	i
CC(Cc1ccccc1)C(=O)Nc1ccccc1 (configuration not stated)	i
Cc1ccc(C(=O)N2CCCC2)c(F)c1F	i
Cc1ccc(C(=O)Oc2cccc(NC(=O)c3ccco3)c2)cc1S(=O)(=O)N1CCC(C)CC1	i
COCCNC(=O)[C@H](C)[C@H]1C[C@]1(C)[C@H](NC(=O)OCc1ccccc1)c1ccccc1	i
O=C1c2cnccc2CN1Cc1ccccc1	i
CCCCNc1nc(CC(C)=O)ns1	i
CC1(C)NC(=O)N(CCCOc2ccccc2Br)C1=O	i
COC(=O)c1ccc(N2CCC(C)CC2)c(N)c1	i
Cc1ccc(C(=O)c2nc3c(n2O)CCCC3)cc1	i
O=c1oc2cc(O)ccc2c2ccccc12	i
COC(=O)c1ccccc1NC(=O)CN1CCOCC1	i
Cc1oc(C(=O)O)cc1COc1ccc2c3c(c(=O)oc2c1)CCC3	i

Quoted at random: 7 compounds from above.
compound	MT1-MMP promoter
O=C1c2cnccc2CN1Cc1ccccc1	i
CC(Cc1ccccc1)C(=O)Nc1ccccc1 (configuration not stated)	i
CC(=O)Nc1ccc(C(=O)N(C)c2ccccc2)cc1	i
Cc1ccc(C(=O)c2nc3c(n2O)CCCC3)cc1	i
COC(=O)c1ccccc1NC(=O)CN1CCOCC1	i
COCCNC(=O)[C@H](C)[C@H]1C[C@]1(C)[C@H](NC(=O)OCc1ccccc1)c1ccccc1	i
Cc1oc(C(=O)O)cc1COc1ccc2c3c(c(=O)oc2c1)CCC3	i

Later entries
compound	MT1-MMP promoter
CC(C)(C)NC(=O)Cn1c(-c2nonc2N)nc2ccccc21	i
CC(=O)C1=C(C)NC(SCC(N)=O)=C(C#N)C1c1cccs1 (configuration not stated)	i
C1CNCCOCCNCCN1	i
COC(=O)C1(C)C=CC2(CCCCC2)N1C(=O)c1ccccc1 (configuration not stated)	i
N#Cc1c(-c2ccc(Br)cc2)nc2n(c1=O)CCCS2	i
Cc1ccc(S(=O)(=O)C2CCOC2=O)cc1 (configuration not stated)	i
CCOC(=O)C1=C(C)NC(=O)C(C(N)=O)C12CCCC2 (configuration not stated)	i
Cc1ccc(-n2c3c(c(=O)[nH]c2=S)C(C(F)(F)F)(C(F)(F)F)NC(=O)N3)cc1	i
CCNc1nc(NC(C)C)nc(SCCOc2ccc(C)cc2)n1	i
COC(=O)[C@@]1(Cc2ccc(OC)cc2)[C@H]2c3cc(C(=O)N4CCCC4)n(CCc4c[nH]c5ccc(OC)cc45)c3C[C@H]2CN1C(=O)c1ccccc1	i
O=C(CCS(=O)(=O)Cc1ccc(Cl)cc1)NCCCN1CCOCC1	i
Cc1nn(-c2nc(-c3ccco3)cc(C(F)(F)F)n2)c(C)c1Cl	i
O=C1CSc2ccc(C(=O)NCCC3=CCCCC3)cc2N1	i
Cc1ccccc1-c1noc(C23CC4CC(CC(C4)C2)C3)n1	i
O=C1C(c2ccc(F)cc2)N(CC2COc3ccccc3O2)C(=O)CN1C1CCCCC1 (configuration not stated)	i

Not a retest: two of the compounds above.
compound	MT1-MMP promoter
Cc1ccccc1-c1noc(C23CC4CC(CC(C4)C2)C3)n1	i
O=C1C(c2ccc(F)cc2)N(CC2COc3ccccc3O2)C(=O)CN1C1CCCCC1 (configuration not stated)	i

Following part
compound	MT1-MMP promoter
CCOc1ccc(NS(=O)(=O)c2ccc(NS(=O)(=O)c3ccc(SC)cc3)cc2)cc1	i
COc1ccc(C)cc1NC(=O)Nn1cnnc1	i
OC(c1ccccc1)c1nccn1Cc1ccccc1 (configuration not stated)	i
O=C(Nc1ccccc1C(=O)NCCc1ccccc1)c1ccco1	i
COC(=O)[C@@H]1C[C@@H]2CC[C@@H](O)C[C@@H]2N1Cc1ccc(C)s1	i
CCOC(=O)c1c(C2COc3ccccc3O2)csc1NC(=O)c1ccccc1 (configuration not stated)	i
CCN(CC)CCCNC(=O)c1[nH]c(C)c(C(=O)NC2CCCCC2)c1C	i
CC(=O)c1c(C)[nH]c(C(=O)Nc2ccc(C)c(C)c2)c1C	i
COc1ccc(CCNc2ccncn2)cc1OC	i
COC(=O)c1cccc(C#CC(NP(=O)(c2ccccc2)c2ccccc2)c2ccccc2)c1 (configuration not stated)	i
COC(=O)c1cccc(C23CC4(C2)[C@H](CN(C)[C@@H]4c2ccccc2)C3c2ccc(C(F)(F)F)cc2)c1 (some centres not stated)	i
CC(=O)Nc1ccc(NC(=O)CSCCc2ccccn2)cc1	i
CC(=O)NCCCc1nc2ccccc2n1Cc1ccccc1C	i
CCC1CCCCN1CCCNC(=O)c1ccc2c(=O)n(Cc3ccc(OC)cc3)c(=O)[nH]c2c1 (configuration not stated)	i
CC1=C(C(=O)OCc2ccccc2)C(c2ccccc2OS(=O)(=O)c2ccccc2[N+](=O)[O-])NC(=O)N1CCCC(=O)O (configuration not stated)	i
C(/C=C/c1ccco1)=N/N1CCN(c2ccccc2)CC1	i
CCn1c(N)c(C(=O)NCCOC)sc1=S	i
CCn1c(=O)cc(SCC(=O)Nc2cccc(SC)c2)c2ccccc21	i
COC(=O)c1ccc(C23CC4(C2)[C@H](CN(Cc2ccc(-c5ccccc5)cc2)[C@@H]4c2ccccc2)C3c2ccc(Cl)nc2)cc1 (some centres not stated)	i
Cn1nc(-c2ccccc2F)c2cc(C(=O)Nc3ccc4c(c3)OCCO4)sc21	i
CN(C)c1ccc(CNC(=O)[C@@]2(C)C=C[C@@H](Cc3ccccc3)N2C)cc1	i
c1ccc2c(c1)Cc1cc3ccccc3nc1-2	i
COc1ccc(-c2nc(CN3CCCC(C(=O)NC4CCCC4)C3)c(C)o2)cc1 (configuration not stated)	i
CC(NC(=O)C(Cc1ccccc1)NC(=O)c1ccccc1)C(=O)O (configuration not stated)	i
O=C(CC1C(=O)N(c2ccc(F)cc2)C(=O)N1Cc1ccccn1)Nc1ccccc1 (configuration not stated)	i
CC(Sc1ccc(Cl)cc1)C(=O)Nc1ccc(S(=O)(=O)N2CCOCC2)cc1 (configuration not stated)	i
O=C(Nc1ccc(Cl)cc1)Nc1cccnc1	i
COC(=O)[C@@]1(Cc2ccc(F)cc2)[C@H]2c3cc(C(=O)N(C)C)n(C[C@H](O)CO)c3C[C@H]2CN1C(=O)c1ccccc1	i
O=C(c1ccco1)N1CCN(Cc2nc3ccc([N+](=O)[O-])cc3c(=O)n2-c2ccccc2F)CC1	i
O=C1CSC(c2ccccn2)N1c1ccc2ccccc2c1 (configuration not stated)	i
COc1ccc(C2NC(=O)N(CCCC(=O)O)C(C)=C2C(=O)OCc2ccccc2)cc1 (configuration not stated)	i
CC12CCC(C(=O)NCc3ccc(Cl)cc3)(OC1=O)C2(C)C (configuration not stated)	i
Cc1cccc(N(NC(=O)C(C)(C)O)C(=O)c2ccccc2)c1	i
Cc1cc2c3c(c1C)C1(C(=O)N3C(C)(C)CC2C)C(C#N)=C(N)OC2=C1C(=O)CC(C)(C)C2 (configuration not stated)	i
CCN(CC)CCNC(=O)CCCCCn1c(=O)[nH]c2cc(C(=O)OC)ccc2c1=O	i
CCc1c2c(nc3ccc(OC)cc13)COC2	i
O=c1[nH]ncc(N/N=C/c2ccccc2)c1Cl	i
Cc1ccc(C(CC(=O)NCc2ccco2)c2ccccc2)c(O)c1 (configuration not stated)	i
COc1ccc(CNC(=O)[C@H](C)[C@H]2C[C@]2(C)[C@H](NC(=O)OCc2ccccc2)c2ccccc2)cc1OC	i
O=C(NCc1ccco1)C1(c2ccc(Br)cc2)CCCC1	i
CCOC(=O)C1=C(Cc2ccc(OC)cc2)C(=O)c2ccccc2C1=O	i
NC(=O)c1ccccc1N/C=C/C(=O)c1ccc(Cl)cc1Cl	i

Assay outcomes (PubChem)
